Menin MLL FP FL = qHTS Assay for Inhibitors Targeting the Menin-MLL Interaction in MLL Related Leukemias: Competition With Fluorescein Labeled MLL-derived Peptide; AID 1766, 2009; FP activity change, % at 61.4 µM; Fluorescence polarization, fluorescein-MLL peptide displacement from menin; 290,000 tested, under 10 active; inconclusive = falling polarisation curve, or a change in total fluorescence; inactive = total fluorescence flat and polarisation flat or rising; no compound was filed as active; the % refers to the polarisation; negative = inhibition;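 note: % of control where 0% means no effect; inhibitors lower the polarisation; unlabelled MLL peptide was the positive control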
gsp antag = qHTS for Antagonists of gsp, the Etiologic Mutation Responsible for Fibrous Dysplasia/McCune-Albright Syndrome: qHTS | hit rate 0.4% among 340,000 | Potency, µM (series often up to 76.9 µM), without a hit: at the top dose activity change, negative = inhibition, most hits filed as inhibitors | gsp-mutant cells, cAMP HTRF, 30 min; control for the full effect not named in the record; active = falling curve of any shape with a large fitted effect; inconclusive = falling curve, mostly with a smaller effect; inactive = flat or rising curve; cell line not stated here;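 note: intracellular cAMP measured with PDE inhibitor Ro 20-1724 present during compound exposure; potency is the fitted concentration of half-maximal effect; % is set by controls: 0 for no effect and ±100 for the full control effect; nearly all actives have a fitted effect of over 65% in size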
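Measurement of cellular cAMP by homogeneous time-resolved fluorescence following a 30 min compound exposure at 37C. The PDE inhibitor […] was present throughout; the assay buffer was DPBS with 0.05% BSA and 0.005% Tween 20.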
TRPV1 potentiator = HTS Assay for Compounds that Act as Potentiators of the Vanilloid Receptor 1; AID 540277, 2011; potentiation, % at 8.33 µM; hit rate 0.02% among 320,000; Transient receptor potential cation channel subfamily V member 1 (Homo sapiens), Q8NER1; TRPV1-expressing cells, Fluo-8 calcium influx, capsaicin EC20 potentiation; host cell line not named in the record; control for the full effect not named in the record; active means potentiation above 80%; inconclusive means 30% to 80%; inactive means below 30%; note: 0% is about no effect
Target sequence (Q8NER1 whole entry, looked up): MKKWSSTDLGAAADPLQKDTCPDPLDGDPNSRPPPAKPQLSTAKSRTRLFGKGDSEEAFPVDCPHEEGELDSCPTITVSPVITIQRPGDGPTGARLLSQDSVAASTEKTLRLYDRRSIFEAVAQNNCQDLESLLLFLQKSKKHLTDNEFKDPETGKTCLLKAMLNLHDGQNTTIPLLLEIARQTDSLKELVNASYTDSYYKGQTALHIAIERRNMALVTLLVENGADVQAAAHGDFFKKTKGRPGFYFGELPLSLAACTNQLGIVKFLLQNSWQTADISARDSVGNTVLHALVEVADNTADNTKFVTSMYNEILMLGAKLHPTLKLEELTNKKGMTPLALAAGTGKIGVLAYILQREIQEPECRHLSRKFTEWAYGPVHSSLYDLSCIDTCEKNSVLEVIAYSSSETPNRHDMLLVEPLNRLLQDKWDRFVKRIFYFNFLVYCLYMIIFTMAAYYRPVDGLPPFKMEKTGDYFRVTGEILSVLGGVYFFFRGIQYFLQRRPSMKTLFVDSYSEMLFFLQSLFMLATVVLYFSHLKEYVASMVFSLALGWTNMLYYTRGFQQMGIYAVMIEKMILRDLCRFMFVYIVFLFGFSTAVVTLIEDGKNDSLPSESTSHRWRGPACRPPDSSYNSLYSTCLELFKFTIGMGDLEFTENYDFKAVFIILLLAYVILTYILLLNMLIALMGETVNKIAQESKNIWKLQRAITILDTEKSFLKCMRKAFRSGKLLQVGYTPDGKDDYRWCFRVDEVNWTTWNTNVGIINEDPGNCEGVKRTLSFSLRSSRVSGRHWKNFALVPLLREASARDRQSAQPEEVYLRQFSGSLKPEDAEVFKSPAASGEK
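TRPV1-expressing cells were cultured overnight at 35.5C and loaded with Fluo-8 calcium dye for 40 to 90 min at room temperature. After a 10 s baseline, compound was added and calcium influx was read kinetically for 3 min (ex 480/em 520 nm).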
ClpP mod = qHTS Assay for Activators of ClpP | purified B. subtilis ClpP, FRET peptide cleavage, 20 min | Potency, µM (series often up to 57.5 µM), for inactives: at the top dose activity change, negative = active | hit rate 1.9% among 340,000; active = well fitted falling curve with a large enough effect; inconclusive = small, poorly fitted or top-dose-only effect; inactive = no such curve, though single readings can be large or run the other way; note: potency is the fitted concentration of half-maximal effect; the source files actives as falling curves though it sought activators and does not explain the sign; nearly all actives have a fitted effect of over 65% in size; many hits overshoot -100%
Target sequence (P80244 whole entry, looked up): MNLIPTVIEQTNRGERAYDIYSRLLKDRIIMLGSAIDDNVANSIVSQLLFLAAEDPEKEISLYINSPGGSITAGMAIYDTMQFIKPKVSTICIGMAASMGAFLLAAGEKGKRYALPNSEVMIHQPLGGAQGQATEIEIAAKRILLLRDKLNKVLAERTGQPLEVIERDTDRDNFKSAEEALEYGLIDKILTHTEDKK
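FRET quenching reversal measured ClpP activation: 10 microg/mL B. subtilis ClpP at pH 8 with the FRET-FV decapeptide, read at 430 nm after 320 nm excitation. The 20-min minus 0-min signal was scaled between DMSO/no-enzyme wells and ADEP (5.8 microM final).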
D2 potentiator = Beta-Arrestin HTS for Positive Allosteric Modulators of the Human D2 Dopamine Receptor: Potentiators | D(2) dopamine receptor (Homo sapiens), P14416 | DiscoveRx D2 beta-arrestin cells, luminescence, 90 min; 100% = 57 uM dopamine signal | potentiation, % (concentration not given with the values) | hit rate 0.23% among 360,000 | AID 624464, 2012; active = potentiation of 50% or more; inconclusive = 30% to 50%; inactive = 30% or less;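 note: compound concentration not given in the record; tested on top of an EC20 dose of dopamine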
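D2 cells co-treated with compound plus 50 nM dopamine (EC20) for 90 min at 37 deg C to detect potentiation. Beta-arrestin recruitment was read as enzyme-fragment luminescence after 1 h at ambient temperature. Full response was set by 57 uM dopamine.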
Sfp inh = qHTS Assay for Inhibitors of Bacillus subtilis Sfp phosphopantetheinyl transferase (PPTase); 4'-phosphopantetheinyl transferase ffp (Bacillus subtilis), Q9F4F7; Biochemical Sfp PPTase activity, qHTS; Potency, µM, inactives show max response, negative = inhibition, hits mostly inhibitors; hit rate 3.5% among 310,000; AID 1490, 2009; active = well fitted inhibition curve with a large enough effect; inconclusive = small, poorly fitted or top-dose-only effect, or another doubt; inactive = no such curve, though single readings can be large or run the other way;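 note: the enzyme is Sfp with the accession as filed and its product quenches rhodamine fluorescence; potency is the fitted concentration of half-maximal effect; 0% = enzyme reaction without inhibitor and -100% = no enzyme wells; top concentration of the series not given in the record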
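Fluorescence-quenching assay: 15 nM Sfp-PPTase preincubated 15 min at room temperature with compound, then 5 uM rhodamine-CoA and 12.5 uM BHQ-2-labelled YbbR peptide added. Fluorescence (ex 525/em 598 nm) read at start and after 30 min; difference gives rate.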
gsp agonist = qHTS for Agonist of gsp, the Etiologic Mutation Responsible for Fibrous Dysplasia/McCune-Albright Syndrome: qHTS. hit rate 0.13% among 340,000. gsp mutant cells, cAMP HTRF, 30 min; control for the full effect not named in the record. Potency, µM (highest dose often 76.9 µM), inactives show at the top dose activation (cAMP increase), usual class: activators; active = well fitted activation curve with a large enough effect; inconclusive = small, poorly fitted or top-dose-only effect, or another doubt; inactive = no such curve, though single readings can be large or run the other way; cell line not stated here;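 note: phosphodiesterase inhibitor Ro 20-1724 added with compounds to block cAMP breakdown; potency is the fitted concentration of half-maximal effect; nearly all actives have a fitted effect of over 60% in size; about a fifth of the inactives were tested at one dose only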
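Cells in DMEM/10% FBS with G418 were pretreated with compounds in DMSO plus […] (300 uM stock) for 30 min at 37C. cAMP was measured by HTRF (cAMP-d2 plus anti-cAMP antibody-K) after 30 min at room temperature.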
* marks the source's active call; other numbers are inactive results; ? = inconclusive; / = not tested or not shown; & = joins results of further samples; [ ] = remark or other dose.

compound	Sfp inh	ClpP mod	gsp antag	gsp agonist	Menin MLL FP FL	TRPV1 potentiator	D2 potentiator
Fc1ccc(NC(=S)NNc2ncc(C(F)(F)F)cc2Cl)c(F)c1	1%	/	-21%	4%[15.4 µM]	1.8	-33	-27
COc1ccccc1-n1cnc(N)c1C(=O)c1ccccc1	9%	0.8%	-19%	3%	-0.1	-11	-7
CN(Cc1ccc(N(C)C)cc1)C(=O)c1cc2ccccc2o1	-1%	-4.4%	-10%	11%[15.4 µM]	-2.6	12	-3
O=C(Nc1cccc([N+](=O)[O-])c1)NC1CCCCCCC1	15%	-1.3%	?	?	/	-2	-36
COc1cccc(CNC(=O)CCCNC(=O)c2ccc(Cl)cc2)c1	-5%	0.4%	3%	-17%	/	-7	-9
O=C(CCCCCn1c(=S)[nH]c2ccccc2c1=O)N1CCOCC1	?	-1.6%	-5%	?	3.0	/	7
CCOc1cc(N2CCOCC2)c(OCC)cc1NC(=O)C(C)(C)C	7%	/	-2%	18%	-5.5	1	-1
O=C(O)CSc1cc(C(=O)c2cc(F)ccc2O)cn2c(=O)c3c(-c4ccccc4)csc3nc12	-20%	3.3%	-23%	5%	25	1	-9
COc1ccc2cc3cc(C(=O)NCCCN4CCOCC4)oc3nc2c1	8%	45%	16%	1%	3.0	5	-7
COc1ccc(CCNC(=O)CCC(=O)n2ncc3cc(C)ccc32)cc1OC	-8%	0.0%	4%	-87%[inhibitor]	2.6	12	-2
O=C(Nc1ccc2ccccc2c1)c1cnccn1	-15%	-16%	-1%	5%	1.5	-5	-9
Cc1ccc(/C=C2/Sc3ccccc3N(CC(=O)NCC3CCCO3)C2=O)cc1 (stereo not given)	-9%	-0.4%	-25%	0%	/	3	-1
NC(=O)c1nc(N2CCOCC2)nc(N2CCOCC2)n1	13%	-3.6%	-10%	?	3.4	4	-7
N#Cc1c(-c2ccccc2)nc(SCC(=O)Nc2ccc(OC(F)(F)Cl)cc2)[nH]c1=O	15%	-2.1%	7%	?	-5.4	15	7
CCOCCCNC(=O)c1cc(Sc2nnc(C)s2)nc2ccccc12	9%	/	-14%	12%[15.4 µM]	2.3	-1	0
CC1(NC(=O)C2CCN(C(=O)Nc3ccccc3)CC2)CCS(=O)(=O)C1 (stereo not given)	13%	/	3%	-8%[15.4 µM]	/	5	5
Cc1cccc(Nc2cc(=O)n(C)c(=O)n2C)c1	/	0.1%	/	3%	/	/	-5
CCOc1ccc(S(=O)(=O)N2CCN(C(=O)c3cc([N+](=O)[O-])ccc3N3CCOCC3)CC2)cc1	/	-1.6%	-4%	-1%	/	1	-3
COc1ccccc1-n1c(SCC(=O)Nc2ccccc2C)nc(O)cc1=O	-2%	1.6%	-7%	?	5.7	3	-8
CC(C)(C)OC(=O)C[C@H]1C/C=C\C[C@H](CC(=O)N[C@H](CO)Cc2ccccc2)C(=O)N[C@H](C(C)(C)C)COC1=O	/	-0.3%	5%	-5%	/	/	-13

(next part)
compound	Sfp inh	ClpP mod	gsp antag	gsp agonist	Menin MLL FP FL	TRPV1 potentiator	D2 potentiator
C=CCn1c(O)c2ccc(C(=O)N=NC(=O)COc3ccc(OC)cc3)cc2c1O	13%	0.0%	-15%	?	-5.8	-11	13
CS(=O)(=O)c1ccc(CNC(=O)[C@]2(C(F)(F)F)C[C@H](CCc3ccccc3)CCCO2)cc1	?	-2.5%	3%	/	4.8	/	-11
COc1ccc(N2CCN(C(=O)NCc3cccc(OC)c3)CC2)cc1	17%	-9.5%	3%	-53%[inhibitor]	0.0	26	-12
COc1cccc(-n2nc(C(=O)N3CCN(Cc4ccccc4)CC3)c3ccccc3c2=O)c1	-4%	-4.5%	-6%	10%	-0.1	-22	7
Cc1cc(C)nc(Sc2ccc([N+](=O)[O-])cc2[N+](=O)[O-])n1	18%	0.8%	19%	-32%[inhibitor]	-3.2	-6	70*
CCOc1ccc(Nc2nc(Cc3nnc(SCC(=O)O)o3)cs2)cc1	45µM*	-2.1%	-5%	-73%[inhibitor]	8.8	5	-4
Cc1ccc(N(CC(=O)N2CCN(Cc3ccccc3)CC2)S(C)(=O)=O)cc1C	18%	-0.4%	0%	1%	1.4	0	-2
O=C1CCN(Cc2ccc(Cl)cc2Cl)C(=O)N1	/	/	10%	-5%	/	/	-4
CC(C)[C@H](NC(=O)c1cccc(CN(Cc2ccccc2)C(=O)c2ccccc2)c1)C(=O)O	/	-0.7%	-7%	-8%[15.4 µM]	/	/	-4
COc1ccc(Cc2nnc(SCC(=O)Nc3ccc(C)cc3C)[nH]c2=O)cc1	/	-2.6%	-9%	-19%	/	?	0
COc1ccc(N2CCN(c3oc(Cc4cccc5ccccc45)nc3C#N)CC2)cc1	4%	-4.7%	8%	-34%[inhibitor]	2.1	-10	-4
Cc1ccc2nc(N3CCN(C(=O)c4ccco4)CC3)c3nncn3c2c1	11%	-4.8%	19%	?	/	-3	5
CC1(C)CC(=O)C(N=Nc2ccc(S(=O)(=O)N3CCOCC3)cc2)=C(O)C1	-5%	/	12%	-1%[15.4 µM]	-3.7	3	-9
O=C1c2ccccc2C(=O)N1Cc1nc2ccccc2o1	7%	0.9%	-14%	28%	0.6	-2	12
NC(=O)C1CCN(c2oc(-c3cccs3)nc2S(=O)(=O)c2ccc(Cl)cc2)CC1	/	-0.7%	-6%	-3%[15.4 µM]	/	/	9
CC1CCN(CC(O)COc2ccc(C(=O)c3ccccc3)cc2)CC1 (stereo not given)	27%	-0.1%	-4%	7%	-3.1	4	-2
COc1ccccc1-c1ccc2c(c1)O[C@@H](CN(C)C(=O)Nc1cccc(F)c1)[C@H](C)CN([C@H](C)CO)S2(=O)=O	/	4.1%	/	-3%	/	/	-2
Cc1ccc(S(=O)(=O)NCC(=O)OCC(=O)N2CC(C)OC(C)C2)cc1 (stereo not given)	/	1.6%	-3%	17%	/	/	-1
CCn1c2ccccc2c2cc(NC(=O)c3cccc(OC)c3OC)ccc21	7%	?	0%	25%	0.0	25	13
CCc1nc2ccc(C(=O)N(C)CC(=O)Nc3ccc(Cl)c(C(F)(F)F)c3)cc2nc1CC	/	0.6%	?	-2%[15.4 µM]	/	-1	-2

Further results follow.
compound	Sfp inh	ClpP mod	gsp antag	gsp agonist	Menin MLL FP FL	TRPV1 potentiator	D2 potentiator
COCn1ccnc1C(O)(c1ccc(OC)cc1)c1ccc(OC)cc1	12%	-1.3%	-5%	7%	0.0	-2	-2
CC1=C(C#N)C(/C=N/OCc2ccc(F)cc2Cl)CC(=O)N1 (stereo not given)	12%	/	/	-2%[15.4 µM]	-0.3	2	-30
CC1(C)Cc2nc3nc(SCC(=O)Nc4ccccc4)nc(N)c3cc2CO1	6%	/	/	-17%[15.4 µM]	-0.9	8	-15
Cc1ccc(N2CCN(S(=O)(=O)c3ccc4c(c3)NC(=O)C(C)C(=O)N4)CC2C)cc1 (stereo not given)	9%	-0.4%	5%	?	0.5	2	-1
CS(=O)(=O)c1ccc2nc(N)sc2c1	4%	-1.1%	-2%	-10%	2.6	5	-4
COc1cccc(NC(=O)Cc2ccc(C)cc2)c1	3%	-0.1%	5%	10%	4.8	-18	-22
Cc1ccc(NC(=S)N(Cc2cccs2)Cc2cc3cc(C)cc(C)c3[nH]c2=O)cc1	23%	-4.4%	6%	-1%	1.6	4	-15
CC(C)NC(=S)Nc1c(N)[nH]c(=O)[nH]c1=O	-2%	-3.3%	9%	11%	1.3	-3	-1
COC(=O)[C@H]1C[C@H]1[C@@H](NC(=O)c1cccnc1)c1ccccc1	12%	-2.9%	9%	/	-4.1	/	-6
CC(C)C[C@H](NC(=O)C1CCN(S(=O)(=O)c2ccccc2)CC1)C(=O)NCc1ccccn1	12%	0.3%	5%	3%	/	-6	-6
O=[N+]([O-])c1cccnc1SCc1ccccc1	5%	2.7%	4%	?	4.7	-6	-10
COc1ccc(N2CCN(C(=S)Nc3cccc(C)c3C)CC2)cc1	5%	1.7%	2%	-39%[inhibitor]	4.5	/	8
Cn1c(=O)c(C(=O)CCl)c(N)n(CC2CC2)c1=O	-4%	-0.5%	0%	2%	0.8	4	-7
CC1=NN(C(N)=S)C(=O)C1N=Nc1cccc(C)c1 (stereo not given)	0%	0.1%	-1%	-27%	3.6	8	-10
Cn1c(=O)c2c(nc(Oc3cccc(O)c3)n2C)n(C)c1=O	17%	-11%	8%	4%[15.4 µM]	0.2	3	-2
Cc1ccc2c(C)nc(NC3=NCN(Cc4ccccc4)CN3)nc2c1	11%	/	/	/	0.1	0	/
COc1cccc(NC(=O)CN(C)C(=O)/C=C/c2cn(-c3ccccc3)nc2-c2ccc(OC)c(OC)c2)c1	/	?	?	12%	/	/	-2
O=C(NCCS(=O)(=O)NCc1ccccn1)c1ccccc1	/	1.1%	6%	9%[15.4 µM]	/	6	-31
CCOc1ccccc1NC(=O)CSc1nc2ccccc2nc1N1CCOCC1	-11%	-8.0%&-13%	-9%	-43%[inhibitor]	5.4	-3	-4
CCC(=O)Nc1ccc(NC(=O)CSc2nnc(-c3ccco3)n2C)cc1	11%	/	-20%	19%[15.4 µM]	-5.3	-3	-7

The results go on.
compound	Sfp inh	ClpP mod	gsp antag	gsp agonist	Menin MLL FP FL	TRPV1 potentiator	D2 potentiator
Cc1ccccc1C(=O)NC1CC2CCCC(C1)N2Cc1ccccc1Cl (stereo not given)	/	-0.5%	/	-21%	/	/	-41
O=C(COC(=O)c1n[nH]c(=O)c2ccccc12)c1ccc(Cl)cc1	19%	-1.2%	-1%	1%	0.0	14	-1
CC(OC(=O)COc1ccc(C#N)cc1)C(=O)Nc1ccc(Cl)cn1 (stereo not given)	/	/	-7%	-2%[15.4 µM]	/	-30	-5
Cn1nnnc1SCC(=O)N(C1CCCCC1)C1CCCCC1	13%	-2.0%	-7%	-26%[15.4 µM]	1.8	-16	-8
